# E coli growth = E. coli growth inhibition, primary screen, OD600 | OD600 absorbance (no concentration beside the values) | Escherichia coli growth, 23 h; stronger effect = lower value | AID 1053175, 2014 | actives 0.21% (n = 330,000);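 active = OD600 absorbance below the run mean of sample wells minus 3.6 SD, in any replicate, cut at about 0.56 in these data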;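 note: stock transfer was 300 nL into about 60 µL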
# Vif TR-FRET = inhibitors of Vif binding to APOBEC3G peptide, primary screen, biochemical, TR-FRET, GST-Vif 1-94, biotin-A3G peptide, dose response retest (AID 1117319) | Virion infectivity factor (Human immunodeficiency virus type 1 group M subtype B (isolate … | TR-FRET GST-Vif / biotin-A3G peptide binding; higher % means a stronger effect; test concentration not given here; strong numbers were not always called active | inhibition, %, or IC50 in µM where a hit was titrated | actives 0.57% (n = 260,000);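 active = above the screen mean plus three standard deviations and confirmed in dose response; inconclusive = results disagree or hit not tested in dose response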;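 note: Vif residues 1-94 fused to GST binding biotinylated APOBEC3G peptide 110-148; 0% = full assay without inhibitor and 100% = GST in place of GST-Vif; retest series ran down from 100 µM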
# UCH37 DUB inh = inhibitors of human UCH37 deubiquitinase, primary screen, biochemical, Ub-AMC cleavage, fluorescence. Ubiquitin carboxyl-terminal hydrolase isozyme L5 (Homo sapiens), Q9Y5K5. AID 588478, 2011. purified proteasome/UCH37. actives 0.33% (n = 330,000). inhibition, % (concentration not given with the values);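 active = mean of two replicates above 20%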;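 note: 0% = compound-free wells with enzyme and 100% = wells lacking proteasome; stock transfer was 100 nL into about 20 µL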
# Target sequence (Q9Y5K5 whole entry, looked up): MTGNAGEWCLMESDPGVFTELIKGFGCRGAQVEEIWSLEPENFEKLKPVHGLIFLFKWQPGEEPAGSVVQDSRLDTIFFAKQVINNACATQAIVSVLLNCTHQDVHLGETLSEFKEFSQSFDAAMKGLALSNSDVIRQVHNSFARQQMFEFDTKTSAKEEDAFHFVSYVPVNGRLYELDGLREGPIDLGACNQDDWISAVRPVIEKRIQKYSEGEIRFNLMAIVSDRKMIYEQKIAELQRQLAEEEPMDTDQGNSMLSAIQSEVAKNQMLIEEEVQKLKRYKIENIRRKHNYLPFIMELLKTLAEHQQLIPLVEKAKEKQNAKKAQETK
#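 Signal – fluorescence, ex 355 nm, em 460 nm · System – Proteasome-bound UCH37 · Input – 0.15 nM proteasome as dispensed · Timing – 30 min preincubation with enzyme, 25 min cleavage at room temperature · Read-out basis – percent inhibition of cleavage signal versus uninhibited and no-proteasome wells · Medium – Tris-HCl pH 7.4 with ATP-MgCl2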
# FGF22 binding = binders of human FGF22 protein, primary screen, FGF22 synaptogenesis inhibitor project, biophysical, thermal shift, single point | AID 651658, 2012 | calls only at 9.99 µM | Fibroblast growth factor 22 (Homo sapiens), Q9HCT0 | actives 1.5% (n = 340,000) | recombinant FGF22 thermal shift, SYPRO orange fluorescence; percent of sucrose octasulfate shift, DMSO zero;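 active = melting point raised past a set limit in the mean and every replicate; inconclusive = no clear call; three in four hits are not shown here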
# Target sequence (Q9HCT0 whole entry, looked up): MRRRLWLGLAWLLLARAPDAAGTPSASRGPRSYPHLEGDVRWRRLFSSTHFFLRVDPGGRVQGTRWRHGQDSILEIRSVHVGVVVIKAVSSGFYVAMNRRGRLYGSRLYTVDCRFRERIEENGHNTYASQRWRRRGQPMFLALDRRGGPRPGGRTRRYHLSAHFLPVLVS
# RanGTP-Impb inh = inhibitors of RanGTP-importin-beta interaction, primary screen, biochemical, FRET, CFP-Ran, YFP-importin-beta, homogeneous; Ran GTPase (GTP-bound) - importin-beta complex; cell-free CFP-Ran/YFP-importin-beta FRET ratio; inhibition, % (no concentration beside the values); actives 1.1% (n = 300,000);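 active = most replicates above 15%; inconclusive = exactly half above 15%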;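 note: 0% = DMSO wells and 100% = Ran loaded with GDP instead of GTP; wells of about 40 µL received 100 nL stock; the first replicate is given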
# AF4-AF9 inh = inhibitors of AF4 peptide binding to AF9, primary screen, biochemical, AlphaScreen, biotin-AF4 peptide, FLAG-AF9, single point; Protein AF-9 (Homo sapiens), P42568; inhibition, % at 10 µM; actives 0.47% (n = 350,000); AID 651704, 2012;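 active = every replicate reaching a set inhibition limit, whatever the replicate mean, cut at about 25% in these data; inconclusive = mean inhibition reaches that limit but some replicates miss it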;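 note: 0% = plate neutral control median and 100% = total signal loss; the record names both 10 and 1 µM as test concentration; the first replicate is given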
# HNF4A DNA FP = change in binding of human HNF4A to DNA, primary screen, biochemical, fluorescence polarization, FITC-DNA; Hepatocyte nuclear factor 4-alpha (Homo sapiens), P41235; 1 h; activity change, % at 10 µM; actives 0.3% (n = 360,000); AID 1224865, 2016; in the data active = activity change above about 30%, passing the limit was not always enough;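 note: controls were the assay level and a saturating level of protein; the project sought stronger binding though the title names inhibitors; some compounds called inactive have numbers as strong as hits; positive values seem to mean higher polarization but the record does not say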
# Target sequence (P41235 whole entry, looked up): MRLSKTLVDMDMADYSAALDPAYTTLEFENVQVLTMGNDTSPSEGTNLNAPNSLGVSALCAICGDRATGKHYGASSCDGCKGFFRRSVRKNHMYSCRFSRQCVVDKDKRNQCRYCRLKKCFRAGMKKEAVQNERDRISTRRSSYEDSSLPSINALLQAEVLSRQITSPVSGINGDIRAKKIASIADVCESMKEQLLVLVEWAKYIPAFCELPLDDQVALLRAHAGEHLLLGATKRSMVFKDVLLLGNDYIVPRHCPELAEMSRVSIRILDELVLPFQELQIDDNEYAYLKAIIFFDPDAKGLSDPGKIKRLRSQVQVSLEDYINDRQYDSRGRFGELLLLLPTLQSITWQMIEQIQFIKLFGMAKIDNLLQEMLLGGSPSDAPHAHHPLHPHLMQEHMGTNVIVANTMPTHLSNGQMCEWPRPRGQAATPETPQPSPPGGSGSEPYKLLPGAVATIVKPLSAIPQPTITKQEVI
# * = called active by the depositor; i = inactive; ? = inconclusive; / = not tested or not shown.
SMILES,E coli growth,Vif TR-FRET,UCH37 DUB inh,FGF22 binding,RanGTP-Impb inh,AF4-AF9 inh,HNF4A DNA FP
Cc1ccc(C)c(N(CC(=O)NN=C2CCCCCCC2)S(C)(=O)=O)c1,0.725,4.4%,2.4,/,1.8,/,-1.3
O=C(Cc1c(O)c2ccccc2[nH]c1=O)NCc1ccccc1F,0.77,2.7%,0.5,/,4.0,/,0.7
Cc1cc([N+](=O)[O-])cnc1N1CCOCC1,0.691,13.0%,9.9,/,1.3,-1.3,2.7
OC(COCc1ccco1)CN1CCN(c2ccccc2)CC1 (stereo unspecified),0.684,0.4%,3.9,/,2.1,/,-0.2
CN(C(=O)CS(=O)(=O)c1cn(CC(=O)N2CCCCC2)c2ccccc12)c1ccccc1,0.722,/,-1.6,i,-0.8,-0.5,0.9
CCC(C)(C)n1nnnc1C(C(C)C)N(Cc1ccco1)Cc1cc2cc3c(cc2[nH]c1=O)OCO3 (stereo unspecified),0.67,7.4%,-42.7,/,-54.5,/,-19.6
CN(C)S(=O)(=O)c1ccc(Cl)c(C(=O)NC2=NCCS2)c1,0.696,-0.4%,2.4,i,-0.1,-1.7,4.4
C[C@H]1[C@@H](Cc2cc(Cl)cc(Cl)c2)N(c2ccccc2)c2ccccc2CN1Cc1ccccc1,/,/,/,i,/,-11.4,3.2
COc1ccc(N2CCN(C(=O)CSc3nnc(-c4ccc5[nH]c(C)c(C)c5c4)o3)CC2)cc1,0.659,5.8%,-20.6,/,1.2,/,5.5
CC(C)(C)C(=O)Nc1ncc(C(F)(F)F)cc1Cl,0.703,-3.0%,2.6,/,-0.3,/,3.1
C[C@@H](CSc1ccccc1)CN1CC[C@H](C(C)(C)C)CCC1=O,0.768,/,0.2,i,7.6,-6.5,-1.6
CCC(CC)c1nnc(NC(=O)C2COc3ccccc3O2)s1 (stereo unspecified),0.716,4.3%,2.1,/,21.4*,/,-2.4
O=C(OCc1cc(=O)n2cc(Br)ccc2n1)C1COc2ccccc2O1 (stereo unspecified),0.694,-5.4%,-7.6,/,-0.3,/,-13.8
CCc1nnc(NS(=O)(=O)c2ccc(NC(=O)c3ccccc3O)cc2)s1,0.641,-2.2%,-38.2,i,1.3,2.4,0.5
O=C1COc2ccc(C(=O)CSc3nnc(Cc4cccs4)n3-c3ccc(Cl)cc3)cc2N1,0.716,7.8%,-2.0,/,1.6,/,-0.3
CCOC(=O)c1sc(Nc2ccc(Br)cc2)nc1C,0.719,-7.0%,-5.0,i,?,/,3.4
COC(=O)c1ccc(CNC(=O)COc2ccccc2Br)o1,0.66,-2.3%,2.8,/,4.0,/,-1.9
CCCC(=O)Nc1ccc(C(=O)N2CCCC2)cc1,0.68,-6.7%,2.1,/,-1.3,/,-0.8
COc1ccc(N2CCN(C(=O)c3c(-c4c(F)cccc4Cl)noc3C)CC2)cc1,0.698,/,2.0,i,/,7.9,3.1
COc1ccccc1CCN=C(N)NS(=O)(=O)c1ccc(C)cc1,0.708,?,1.9,/,-1.4,-0.7,-1.8
Cc1cc(C)c(NC(=O)CS(=O)CC(=O)NCC2CCCO2)c(C)c1 (stereo unspecified),0.698,11.7%,3.4,/,-3.3,/,2.8
CC(C)c1ccc(NC(=O)Cn2nnc(C(=O)NCc3ccc4c(c3)OCO4)c2N)cc1,0.65,/,2.6,i,-2.6,0.2,0.8
CC(C)(C)n1nnnc1C(c1cccc(C#N)c1)N1CCCc2ccccc21 (stereo unspecified),0.69,-5.0%,3.8,i,-2.6,?,5.7
CCCC(C)NNC(=O)c1cc2ccccc2[nH]1 (stereo unspecified),0.742,-0.1%,-0.7,/,1.7,/,-0.5
CS(=O)(=O)N(CC(=O)Nc1c(F)cccc1F)c1cccc([N+](=O)[O-])c1,0.732,5.7%,-3.7,/,?,/,3.1
CC1=C(C)CC2C(=O)N(c3cccc4ccccc34)C(=O)C2C1 (stereo unspecified),0.752,3.2%,3.1,i,2.1,-0.4,-0.2
CCOc1ccc(Br)cc1S(=O)(=O)Nc1ccccc1N1CCOCC1,0.711,-3.2%,7.6,/,0.5,/,-0.8
COc1ccc(C(C)=O)cc1COC(=O)CSC(C)C(=O)Nc1cc(C)on1 (stereo unspecified),0.633,2.5%,1.6,i,4.0,-0.2,0.8
Cc1ccc(OCC(O)CN2C(=O)NC(C)(C)C2=O)cc1C (stereo unspecified),0.649,-5.3%,1.6,i,-1.3,-2.0,3.5
O=C(NCc1ccncc1)c1cncc(Br)c1,0.646,-2.0%,3.3,i,0.7,-0.7,3.4
CCOc1ccc2noc3c2c1C(=O)c1ccccc1-3,/,31.7%,/,/,-386.8,/,-89.1
COc1ccccc1C/C(N)=N/OC(=O)c1cccc([N+](=O)[O-])c1,0.726,8.8%,3.4,/,?,/,1.3
Cc1cc(C)c(S(=O)(=O)N(C)CC(=O)NCc2ccccn2)c(C)c1,0.646,-3.3%,0.4,i,-0.4,-0.1,/
CC1CC(=O)N(c2ccc(N(C)Cc3ccccc3)c([N+](=O)[O-])c2)C1=O (stereo unspecified),0.708,0.8%,4.7,i,-1.3,0.4,4.2
Cc1ccc(C)c(N2C(=N)S/C(=C\c3ccc(-c4ccccc4C(=O)O)o3)C2=O)c1,0.693,16.6%,8.9,/,-24.2,-4.5,18.2
CCn1c(SCC(=O)Nc2ccc3c(c2)OCCO3)nnc1-c1ccncc1,0.677,/,3.3,i,1.1,-2.3,1.8
CCOC(=O)C1=C(C)N(CCCCCC(=O)O)C(=O)NC1c1cccc([N+](=O)[O-])c1 (stereo unspecified),/,/,17.7,i,-2.4,2.6,0.2
C=CC[C@H](CC(=O)NCCO)C(=O)N[C@@H](COC(=O)[C@@H](CC=C)Cc1ccc(F)cc1)Cc1ccccc1,/,/,0.6,i,/,-9.2,3.8
COCc1cc(=O)n2c(-c3ccccc3OC)n[nH]c2n1,0.704,5.0%,4.7,/,5.4,/,0.1
Cc1cccc(Nc2nc(-c3ccc(O)cc3O)cs2)n1,0.572,/,1.3,i,-1.2,-2.7,3.7
Cc1cc(C)n(-c2cc(N3CCN(S(=O)(=O)c4ccc(Br)cc4)CC3)ccc2[N+](=O)[O-])n1,0.691,?,1.2,/,1.5,/,4.6
CCOC(=O)C(NC(=O)c1ccc(OC)cc1)(Nc1cc(C)on1)C(F)(F)F (stereo unspecified),0.735,-0.7%,3.3,/,-2.5,/,0.2
Cc1cc(C)c(C)c(S(=O)(=O)NCc2ccc(C(=O)N3CCOCC3)cc2)c1C,0.701,5.0%,1.3,i,0.1,-1.5,1.0
Cc1ccc(CNC(=O)Cc2csc(Nc3nc(=S)[nH]c4ccccc34)n2)cc1,0.662,-2.2%,-40.7,i,?,6.4,/
CCOc1c(C)cc(S(=O)(=O)NCc2cccnc2)c(C)c1C,0.621,/,0.0,i,1.4,-12.9,2.7

# 3 compounds picked at random from those above, as already listed:
SMILES,E coli growth,Vif TR-FRET,UCH37 DUB inh,FGF22 binding,RanGTP-Impb inh,AF4-AF9 inh,HNF4A DNA FP
CCOC(=O)C(NC(=O)c1ccc(OC)cc1)(Nc1cc(C)on1)C(F)(F)F (stereo unspecified),0.735,-0.7%,3.3,/,-2.5,/,0.2
Cc1cc(C)c(S(=O)(=O)N(C)CC(=O)NCc2ccccn2)c(C)c1,0.646,-3.3%,0.4,i,-0.4,-0.1,/
CCOC(=O)C1=C(C)N(CCCCCC(=O)O)C(=O)NC1c1cccc([N+](=O)[O-])c1 (stereo unspecified),/,/,17.7,i,-2.4,2.6,0.2

# New compounds follow:
SMILES,E coli growth,Vif TR-FRET,UCH37 DUB inh,FGF22 binding,RanGTP-Impb inh,AF4-AF9 inh,HNF4A DNA FP
N#CCOc1ccccc1CNC[C@H]1O[C@@H](n2cnc(C(N)=O)n2)[C@H](O)[C@@H]1O,/,/,/,i,/,-1.8,1.6
CCOC(=O)N1CCN(S(=O)(=O)c2ccc(F)c(C(=O)Nc3cc(C)cc(C)c3)c2)CC1,0.675,69.4%,-0.3,/,5.1,/,-5.7
CCOc1cc(C=C2C(=O)c3ccccc3C2=O)ccc1OCC(=O)Nc1ccc(C)cc1,0.703,-9.0%,4.5,/,2.6,/,-0.9
COc1ccccc1OCC(=O)N1CCCC(Nc2cccc(F)c2)C1 (stereo unspecified),0.729,-1.8%,1.7,i,4.9,-1.4,0.3
Clc1ccc(C=NN2CCCCCC2)cc1Cl,0.686,-3.9%,6.0,i,/,-3.0,4.7
COc1ccc(-c2ccc(OC)cc2C(=O)O)cc1,0.685,-0.4%,4.7,/,2.8,/,-3.2
O=C(Nc1ccncc1)c1ccc2c(c1)C(=O)N(C1CCCCC1)C2=O,0.67,1.4%,4.2,/,2.5,/,-1.0
c1ccc(CSc2ncnc3c2oc2ccccc23)cc1,0.776,/,1.9,/,3.3,/,-2.3
COc1c(C(=O)Nc2ccc3[nH]c(=O)[nH]c3c2)cc2ccccc2c1Br,0.752,-5.0%,-121.7,i,1.0,-5.0,-2.2
CCCCC[C@@H](C)N1C[C@@H](COCc2ccccc2)Oc2cc(N3CCC[C@H]3CO)ccc2S1(=O)=O,/,/,/,i,/,-1.4,1.3
CCOC(=O)c1sc(=S)n(-c2cccc(OC)c2)c1N,0.735,0.9%,6.7,i,-0.7,1.9,5.8
CC(C)C[C@H](NC(=O)N1CCn2c1nc1ccccc12)C(=O)N[C@H](Cc1ccccc1)C(=O)O,0.723,/,0.4,i,3.9,-2.8,1.5
CCOc1cc(C(=O)Nc2cc(=O)n(C)c(=O)n2C)cc(OCC)c1OCC,0.71,-3.5%,0.0,/,-5.9,/,1.3
COc1ccc(CCNC(=O)Cc2ccccc2)cc1OC,0.678,/,0.6,i,?,-5.9,-2.0
COc1ccc2occ(C(=O)c3coc4ccc(O)c(CN(C)C)c34)c2c1,0.734,?,7.0,/,-5.3,/,-0.5
CN1CCN(c2ccccc2NC(=S)NC(=O)c2cc3ccccc3o2)CC1,0.73,/,1.8,i,5.2,2.6,-3.3
COc1ccc(NC(=O)C2CCN(C(=O)c3ccco3)CC2)c(OC)c1,0.604,0.4%,0.8,i,6.2,-4.9,-2.2
Cc1cc(OC(C)C(=O)NCC2CCC(C(=O)O)CC2)c2c(C)c(Cc3ccccc3)c(=O)oc2c1 (stereo unspecified),0.655,/,-195.8,i,?,-1.2,-3.1
Cc1nnc(SCC(=O)Nc2cccc(C(F)(F)F)c2)n1Cc1ccco1,0.692,29.1%,0.0,/,6.3,/,0.8
CC(=O)Cc1nsc(Nc2ccccc2)n1,0.691,0.7%,2.2,/,3.1,/,-2.1
O=CN1CCN(C(=O)Cc2ccc([N+](=O)[O-])cc2)CC1,0.695,/,2.0,i,4.2,4.9,-3.7
CCOC(=O)c1[nH]c(C)c(C(=O)N(C)C)c1C,0.641,4.6%,0.0,/,-3.3,/,1.2
Cc1nc(C(F)(F)F)ccc1C(=O)N1CCCCCC1(C)C(=O)NCC(C)C (stereo unspecified),/,/,/,i,/,-2.0,2.1
Cc1ccc(NC(=O)c2nc[nH]c2C(=O)NCc2ccccc2)cc1,0.712,/,0.1,i,/,1.4,-1.2
CCCCCOC(=O)c1c(N)n(CCOC)c2nc3ccccc3nc12,0.688,-4.7%,i,/,6.0,/,1.8
c1ccc(-c2nnc(SCC3CCCO3)nc2-c2ccccc2)cc1 (stereo unspecified),0.668,/,3.4,i,26.4*,14.1,-4.8

# An excerpt (hit frequency here may not be typical).
